NS1 inh = blocks influenza NS1 protein function; S. cerevisiae slowed by influenza A NS1, growth recovery by OD600; Potency, µM (highest dose often 46.1 µM), for the others: at the highest dose activity, positive = more growth; 270,000 tested, 0.4% active; further: actives are rising curves; nearly all actives have a fitted effect of over 50% in size
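OD600 was taken as the measure of yeast growth restored by compound in an NS1-expressing S. cerevisiae strain. Cells had been washed out of glucose medium and diluted 1:100 into galactose -URA medium, pH 6.0.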
SARS PLP yeast = inhibitors of SARS-CoV papain-like protease in yeast; 330,000 tested, 0.19% active; Potency, µM (titrated, usually from 32.9 µM), without a hit: at the top dose activity, positive = growth rescue; S. cerevisiae expressing SARS-CoV PLpro, growth rescue; control for the full effect not named in the record; further: 0% is about no effect; nearly all actives have a fitted effect of over 55% in size; growth read by luminescence after 48 h
Cruzain Triton = blocks cruzain activity in presence of Triton detergent; P25779; purified cruzain, Z-FR-AMC fluorescence, 0.01% Triton; Potency, µM, without a hit: max response, negative = inhibition, hits mostly inhibitors; 200,000 tested, 0.43% active; AID 1478; active means well fitted curve in the direction sought with a large enough effect; inconclusive means small, poorly fitted or top-dose-only effect, or another doubt; inactive means no such curve, though single readings can be large; an effect the other way counts as inactive or inconclusive;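 further: plate controls were neutral wells for no effect and buffer without enzyme for full effect; nearly all actives have a fitted effect of over 40% in size; top concentration of the series not given in the record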
Target sequence (P25779 123-467 limits assumed): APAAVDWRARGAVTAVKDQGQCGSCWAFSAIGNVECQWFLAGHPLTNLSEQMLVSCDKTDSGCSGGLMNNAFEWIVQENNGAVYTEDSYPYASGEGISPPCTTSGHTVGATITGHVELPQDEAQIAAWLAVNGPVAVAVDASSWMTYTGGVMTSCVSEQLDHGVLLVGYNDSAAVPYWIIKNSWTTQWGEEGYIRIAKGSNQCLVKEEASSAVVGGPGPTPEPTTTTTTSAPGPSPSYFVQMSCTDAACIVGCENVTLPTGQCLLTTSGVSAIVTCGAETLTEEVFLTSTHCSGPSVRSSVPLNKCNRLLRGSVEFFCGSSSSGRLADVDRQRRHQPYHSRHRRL
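Z-FR-AMC hydrolysis (2 uM substrate) by cruzain (1.5 nM) monitored kinetically at ex 360/em 450 nm after 15 min room-temperature compound exposure; 0.01% Triton X-100, pH 5.5, 5 mM DTT.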
Lassa entry inh = inhibitors of Lassa virus binding or cell entry | 300,000 tested, 1.2% active | Potency, µM (top dose mostly 37.9 µM), for the others: top-dose activity change, negative = inhibition, usual class: inhibitors | Lassa virus pseudotype entry inhibition, cell reporter; control for the full effect not named in the record; active means well fitted inhibition curve with a large enough effect; inconclusive means small, poorly fitted or top-dose-only effect, or effect the other way; inactive means flat fitted curve, though single readings scatter; tested in HEK293 cells; further: on the % scale 0 is the no-effect control and ±100 the full control effect; nearly all actives have a fitted effect of over 50% in size; luciferase read-out
RE007 growth inh = less growth of the S. pombe RE007 Vpr strain; S. pombe RE007 Vpr strain, BacTiter-Glo ATP luminescence, 24 h; control for the full effect not named in the record; Potency, µM (highest dose often 92.2 µM), for the others: at the top dose activity change, negative = less growth; 360,000 tested, 0.21% active; AID 651644; active = well fitted falling curve with a large enough effect; inconclusive = small, poorly fitted or top-dose-only effect; inactive = no such curve, though single readings can be large or run the other way;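 further: on the % scale 0 is the no-effect control and ±100 the full control effect; nearly all actives have a fitted effect of over 50% in size; the assay follows cell death caused by Vpr and the record does not say whether a fall means rescue or toxicity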
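Fission yeast RE007 carrying one integrated HIV-1 vpr copy, seeded at OD 0.01 in PMG+AL medium with 23 nL pinned compound. Grown 24 h at 30 degrees; viability read by BacTiter-Glo luminescence after 5 min.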
Marburg entry inh = Marburg virus entry inhibition; Potency, µM (highest dose often 37.8 µM), for inactives: top-dose activity change, negative = inhibition, hits mostly inhibitors; AID 540276; 300,000 tested, 1.8% active; Marburg virus pseudotyped entry inhibition, cell reporter; control for the full effect not named in the record; about a third of the inactives were read at about 46 µM; active = well fitted inhibition curve with a large enough effect; inconclusive = small, poorly fitted or top-dose-only effect, or effect the other way; inactive = flat fitted curve, though single readings scatter; tested in HEK293 cells; about a fifth of its hits are not listed in these tables; further: on the % scale 0 is the no-effect control and ±100 the full control effect; luciferase read-out
Cruzain inh noDet = inhibitors of Trypanosoma cruzi cruzain without detergent; purified cruzain, Z-FR-AMC fluorescence, no detergent; Potency, µM, inactives show max response, negative = inhibition, hits mostly inhibitors; 200,000 tested, 2.3% active; P25779; active means well fitted curve in the direction sought with a large enough effect; inconclusive means small, poorly fitted or top-dose-only effect, or another doubt; inactive means no such curve, though single readings can be large; an effect the other way counts as inactive or inconclusive;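 further: plate controls were enzyme without inhibitor for no effect and buffer without enzyme for full effect; nearly all actives have a fitted effect of over 40% in size; top concentration of the series not given in the record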
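Detergent-free condition (0.00005% Triton X-100) in acetate buffer pH 5.5 with DTT. 1.5 nM enzyme and compound were pre-mixed 15 min, then 2 uM Z-FR-AMC substrate added; reaction progress from fluorescence change between first and third reads (60 s).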
StopGo reporter = FMDV 2A StopGo reporter, luciferase signal; human cells with a luciferase reporter of 2A StopGo recoding; control for the full effect not named in the record; Potency, µM (top dose mostly 57.9 µM), inactives show at the top dose signal change, negative = less light; 410,000 tested, 1.2% active; active = well fitted falling curve with a large enough effect; inconclusive = small, poorly fitted or top-dose-only effect; inactive = no such curve, though single readings can be large or run the other way; tested in HEK293T cells; further: on the % scale 0 is the no-effect control and ±100 the full control effect; nearly all actives have a fitted effect of over 45% in size; luciferase light after 4 h
* = called active by the depositor; ? = inconclusive; nt = no result given; & = joins results of further samples; [ ] = another dose, or the depositor's remark. Unless noted, the call rests on the fitted dose curve; in most records, active means well fitted rising curve with a large enough effect; inconclusive means small, poorly fitted or top-dose-only effect; inactive means no such curve, though single readings can be large or run the other way. Potency means the concentration at half of the fitted maximal effect.

SMILES	NS1 inh	SARS PLP yeast	Cruzain Triton	Lassa entry inh	RE007 growth inh	Marburg entry inh	Cruzain inh noDet	StopGo reporter
O=C(c1ccc([N+](=O)[O-])cc1)N1CCSC1c1ccccc1Cl (stereo not drawn)	2%	2%	nt	0%	9%	0%[46.1 µM]	nt	-28%
Cc1cccc(N2C(=O)c3ccc(C(=O)Nc4c[nH]c(=O)[nH]c4=O)cc3C2=O)c1	-3%	-1%	nt	nt	8%	nt	nt	-4%
Nc1cc(OCC(F)(F)F)cc(OCC(F)(F)F)c1	nt	2%	nt	-5%	-9%	?	nt	2%
CCCCN(CC)CCNC(=O)C1c2cc(OC)c(OC)cc2C(=O)N2CCc3ccccc3C12 (stereo not drawn)	4%	3%	0.1%	-1%	1%	-7%[46.1 µM]	2%	1%
Cc1cc(C)nc(SCC(=O)OC(C)C(=O)Nc2ccccc2)n1 (stereo not drawn)	3%	-6%	nt	-1%	-4%	15%	nt	-23%
CC(=O)N1c2ccc(S(=O)(=O)N3CCC(C(=O)NC4CCCCC4)CC3)cc2CC1C (stereo not drawn)	-7%	-3%	nt	-2%[46.1 µM]	5%	?	nt	-14%
Cc1cc(C)nc(SCc2cc(=O)c(OC(=O)c3ccc(Cl)c([N+](=O)[O-])c3)co2)n1	10%	-20%	-7.8%	12%	-3%	-1%	14%	-18%
Cc1cccc(C(c2sc3nc(-c4ccco4)nn3c2O)N2CCOCC2)c1 (stereo not drawn)	nt	nt	-3.7%	1%[46.1 µM]	nt	nt	5%	-10%
COCCCN(C(=O)c1cccnc1SC)c1c(N)n(Cc2ccccc2)c(=O)[nH]c1=O	0%	9%	2.3%	3%	18%	2%&2%	-1%	14%
Cc1cccc(S(=O)(=O)Nc2nc3ccccc3nc2NCC2CCCO2)c1 (stereo not drawn)	3%	0%	nt	nt	5%	nt	nt	42%[activator]
O=S(OCCN1CCCC1)C(c1ccccc1)c1ccccc1 (stereo not drawn)	nt	nt	nt	12%	-10%	-19%	nt	-18%
COc1ccc(C(=O)NCCCN=C2NS(=O)(=O)c3ccccc32)cc1	7%	0%	nt	5%	5%	nt	nt	7%
COc1ccc(N2CCN(C(=O)c3cccn4c(=O)c5ccc(Cl)cc5nc34)CC2)cc1	nt	nt	-0.6%	-4%[46.1 µM]	nt	nt	-2%	-7%
O=C(NCCCc1ccccc1)C(=O)c1c[nH]c2ccccc12	-6%	?	nt	nt	6%	nt	nt	6%
C=CCNC(=S)NNC(=O)c1cc(O)ccc1O	4%	0%	nt	15%[46.1 µM]	16%	25%[46.1 µM]	nt	44%[activator]
COc1ccc2c(c1)c(CC(=O)OCC(=O)O)c(C)n2C(=O)c1ccc(Cl)cc1	13%	-1%	-5.0%&-5.5%	nt	-1%	nt	?	-22%&-8%
COc1ccccc1N1CCN(C(=O)c2cc3c(s2)CCC3)CC1	-3%	2%	-4.8%	-8%	2%	?	-13%	-21%
Cc1cccc(N(CC(N)=O)C2SC(=O)N(c3ccccc3)C2=O)c1 (stereo not drawn)	0%	5%	4.1%	-1%	14%	11%[46.1 µM]	7%	-12%
Oc1ccc(Nc2nc(-c3ccc4ccccc4c3)cs2)cc1	-57%	-17%	-5.0%	nt	nt	2%	-17%	nt
NC(=O)c1ccc(C(=O)c2ccc([N+](=O)[O-])cc2)cc1	16%	18%	-2.1%	2%	-1%	-3%	6%	-19%
CC(=O)Nc1ccc(NS(=O)(=O)c2ccc(Cl)s2)cc1	7%	0%	-5.1%	-5%&-18%[46.1 µM]	19%	2%&8%[46.1 µM]	-3%	1%&-6%
Oc1ccccc1Nc1ncnc2c1oc1ccccc12	-9%	-5%	-6.8%	-17%	-10%	19%	?	-9%
CCOC(=O)C1CCCN(S(=O)(=O)c2ccc3c(c2)N(C)C(=O)CC(=O)N3C)C1 (stereo not drawn)	-5%	?	-5.6%	?	-8%	4%&-19%[46.1 µM]	23%	-4%&3%
COc1cccc(CNC(=O)C2CCCN(S(=O)(=O)N(C)c3ccc(F)cc3)C2)c1OC (stereo not drawn)	nt	nt	-1.0%	-17%[46.1 µM]	nt	nt	13%	22µM*
CCn1cc(/C=C(\NC(=O)c2ccccc2)C(=O)N2CCOCC2)c2ccccc21	4%	4%	nt	nt	0%	nt	nt	6%
COc1ccc(CNC(=O)NCc2ccc(OC)c(OC)c2)cc1OC	11%	-4%	3.7%	14%	0%	6%	0%	2%
CC(C)N1CCc2c(sc(NC(=O)Cc3ccccc3)c2C(N)=O)C1	-5%	-6%	nt	nt	0%	nt	nt	?
COc1ccc2oc(C)c(C(=O)NN)c2c1	0%	-8%	1.4%	5%	9%	15%	-6%	nt
Cc1ccc(-c2nc(S(=O)(=O)c3ccc(C)cc3)c(N(C)C)o2)cc1	-5%	5%	nt	?	11%	?	nt	30%[activator]
COC(=O)C1=C(C)NC(=S)N(C(C)=O)C1c1ccc(OC)c(OC)c1 (stereo not drawn)	-9%	7%	-6.4%	10%	-5%	-11%	-2%	-13%
CC(C)(C)c1ccc(-c2c(C(=O)O)c(C(=O)O)c3n2CSC3)cc1	2%	2%	nt	nt	2%	nt	nt	-21%
COc1ccc(CNC(=O)c2cccc(S(=O)(=O)N3CCN(C)CC3)c2)cc1	nt	1%	nt	?	-16%	-3%[46.1 µM]	nt	-1%
O=C(NCc1ccc2c(c1)CCN2C(=O)c1ccc(F)cc1)c1c(F)cccc1F	nt	nt	0.3%	?	nt	nt	-2%	?
CCOc1ccc(-c2noc(CSc3nnc(Cc4ccccc4)n3-c3cccc(C)c3)n2)cc1	nt	nt	-8.1%	?	nt	?	-7%	?
Cc1csc(SCC(=O)N(C)C2CCS(=O)(=O)C2)n1 (stereo not drawn)	nt	-3%	nt	-8%	4%	-6%[46.1 µM]	nt	4%
C=CCSc1nc2sc(C)c(C)c2c(=O)n1CC=C	0%	-58%	-8.8%	-17%	-15%	-7%	-13%	-16%
O=C(c1cccn1-c1nnc(N2CCCC2)s1)N1CCN(c2ccccc2)CC1	nt	nt	1.3%	-2%[46.1 µM]	nt	nt	-6%	8%
CN(c1ccc(C(=O)Nc2cccc(O)c2)cc1)S(=O)(=O)c1ccccc1	-11%	-1%	nt	-25%	-6%	?	nt	-23%
CCCn1nnnc1NCc1c(Cl)cccc1Cl	-7%	0%	nt	nt	22%	nt	nt	8%
C#CCOc1ccc(OC)cc1C(c1c(C)[nH][nH]c1=O)c1c(C)[nH][nH]c1=O	-13%	?	nt	2%[46.1 µM]	5%	-4%[46.1 µM]	nt	9%
CN(c1cccc(NC(=O)COc2ccccc2)c1)S(C)(=O)=O	-9%	2%	2.5%	14%	2%	11%	-2%	nt
O=C(Cc1ccc(-n2c(=S)[nH]c3ccccc3c2=O)cc1)N1CCC(N2CCCCC2)CC1	7%	1%	0.8%	-1%	-2%	-19%	0%	-25%
COCCCNC(=O)c1cccn2c(=O)c3cc4ccccc4cc3nc12	4%	-6%	-12%	?	16%	?	?	-1%
CC(C)CN(C(=O)COC(=O)c1cc2c(s1)CCC2)C1CCS(=O)(=O)C1 (stereo not drawn)	3%	-5%	0.1%	9%	21%	1%	?	3%
Cc1ccc2nc(CSc3nnc(Nc4ccccc4F)s3)cc(=O)n2c1	16%	-6%	-11%	?	2%	3%	-10%	0%
COC(=O)CN1C(=O)C2(OCCCO2)c2cc(Br)ccc21	-12%	2%	3.4%	-4%	0%	22%	3%	-13%
COc1ccc(S(=O)(=O)n2ccc(-c3ccc(OCCN(C)c4ccccn4)cc3)n2)cc1	21%	-6%	9.4%	?	-18%	-4%	-2%	-25%
COc1ccc(OCC(O)CN2CCN(c3ccc(OC)cc3)CC2)cc1 (stereo not drawn)	1%	-1%	nt	-10%[46.1 µM]	-11%	?	nt	7%
CSc1nnc(C(C)(C)C)c(=O)n1/N=C/c1ccccc1	-6%	1%	nt	3%	-2%	0%[46.1 µM]	nt	-10%
O=c1oc2ccccc2c(Nc2ccccc2)c1CN1CCCCC1	0%	-1%	nt	-1%[46.1 µM]	11%	?	nt	-13%
CCCCCOc1ccc(NC(=O)CSc2cccc3cccnc23)cc1	-3%	18%	-0.1%	15%	4%	?	16%	0%
Cc1noc(NS(=O)(=O)c2ccc(N/C=C\C(=O)c3cccs3)cc2)c1C	-9%	0%	nt	2%	-10%	5%	nt	13%
COc1ccc(OCC(O)CN2CCNCC2)cc1 (stereo not drawn)	15%	0%	nt	25%	2%	-13%	nt	-5%
COC(=O)NC1c2ccccc2Oc2ccccc21	4%	1%	nt	-6%	1%	?	nt	-2%
CNc1nc(N)c([N+](=O)[O-])c(Nc2cccc(F)c2)n1	-15%	-1%	nt	0%	6%	16%[46.1 µM]	nt	2%
CCOC(=O)C1(CCOc2ccccc2)CCN(Cc2ccc(O)cc2)CC1	0%	-4%	nt	nt	-9%	nt	nt	?
O=C(Cc1ccccc1)Nc1sc2c(c1C(=O)Nc1ccccc1Cl)CCCC2	nt	nt	-0.7%	16%[46.1 µM]	nt	nt	-9%	-8%
Cc1ccc2c(CC(=O)NC3CCCc4ccccc43)coc2c1 (stereo not drawn)	-9%	-11%	-0.9%	-2%	0%	-54%	0%	-2%
CCOc1ccc(OCCn2c(=S)[nH]c3ccccc32)cc1	16%	26%	nt	nt	0%	nt	nt	34%[activator]
Cc1cccc2c(=O)cc(CSCC(=O)Nc3ccc(Cl)cc3)[nH]c12	nt	nt	0.3%	-3%[46.1 µM]	nt	nt	9%	-27%
CCOc1ccc(N2C(=O)CC(N(CCc3ccc(OC)cc3)C(=O)/C=C/C(=O)O)C2=O)cc1 (stereo not drawn)	3%	-2%	nt	4%[46.1 µM]	-9%	-2%[46.1 µM]	nt	-7%
Cc1cccc(NC(=O)CN2CCN(CC(=O)NCc3ccc(Cl)cc3Cl)CC2)c1C	nt	0%	nt	10%	9%	4%	nt	-22%
NC(=O)c1ccsc1NC(=O)COC(=O)Cc1ccsc1	-32%	-10%	-1.2%	-2%	3%	3%	-12%	-19%

Bioassay records deposited in PubChem by National Center for Advancing Translational Sciences (NCATS).
